VACV E9 pol inh = inhibitors of vaccinia virus processive DNA synthesis (E9 polymerase); in vitro processive DNA synthesis, absorbance read-out; stronger effect = lower value; some inactives read as strong as hits; AID 493162; normalized absorbance, % (concentration not given with the values); 46,000 compounds, 0.94% hits;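 active means replicate mean up to 90% and picked by the depositor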;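 further: 100% = median of the test wells of a plate; 100 nL library stock went into each well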
Numbers without * were called inactive.

Start of the listing, in advance, four compounds:
| SMILES | VACV E9 pol inh |
| --- | --- |
| COc1ccc(-c2nc(CNS(=O)(=O)c3ccc(NC(C)=O)cc3)cs2)cc1 | 102 |
| O=C(O)c1ccc2c(c1)OCCOCCOCCO2 | 100 |
| CCN1CCN(S(=O)(=O)c2c(C)c(C)cc(C)c2C)CC1 | 99 |
| CC(C)(C)C(=O)c1cn(CC(=O)O)c2ccccc12 | 81 |

This part in full, from the first entry:
| SMILES | VACV E9 pol inh |
| --- | --- |
| COc1ccc(-c2nc(CNS(=O)(=O)c3ccc(NC(C)=O)cc3)cs2)cc1 | 102 |
| O=C(O)c1ccc2c(c1)OCCOCCOCCO2 | 100 |
| CCN1CCN(S(=O)(=O)c2c(C)c(C)cc(C)c2C)CC1 | 99 |
| CC(C)(C)C(=O)c1cn(CC(=O)O)c2ccccc12 | 81 |
| O=C(CSc1ccc(F)cc1)NCCSc1ccccc1 | 94 |
| Cc1ccc(SCc2cc(=O)[nH]c(SCC(=O)n3c4ccccc4c4ccccc43)n2)cc1 | 100 |
| C[C@@H]1CC2C3CCC4=CC(=O)C=C[C@]4(C)[C@@]3(F)[C@@H](O)C[C@]2(C)[C@@]1(O)C(=O)CO (stereo partly specified) | 101 |
| CN(CCOC(=O)C1c2ccccc2Oc2ccccc21)Cc1ccccc1 | 100 |
| CCCNC(=O)c1cnn(-c2ccccc2)c1-n1cccc1 | 102 |
| O=C(Cn1c(-c2cccs2)cc2ccccc21)N1CCCCC1 | 84 |
| CC1CN(C(=O)CCn2c(=O)oc3ccccc32)CC(C)O1 (stereo unspecified) | 84 |
| S=c1[nH]c2ccccc2n1Cc1ccccc1 | 78* |
| COC(CNC(=O)c1ccc(/C=C2\Sc3ccccc3N(Cc3ccc(F)cc3)C2=O)cc1)OC | 101 |
| COC(=O)c1cc2c(s1)CN(Cc1ccc(Cl)cc1)C2 | 94 |
| Cc1c(S(=O)(=O)Nc2ccc(N3CCCCC3)cc2)sc2ccc(Cl)cc12 | 118 |
| CCCc1c(C)c2ccc(OCC(=O)O)cc2oc1=O | 100 |
| NC(N)=NC(N)=Nc1ccccc1Br | 106 |
| NC(=O)CN(c1ccc(Cl)cc1Cl)S(=O)(=O)c1ccccc1 | 100 |
| O=C(NCCn1ccc2ccccc21)c1ccccc1 | 97 |
| COc1ccc(NC(=O)c2ccc(COc3ccc(C(C)C)cc3)o2)cc1 | 100 |
| COc1ccccc1C(=O)OCC1CCCN2CCCCC12 (stereo unspecified) | 100 |
| O=C1CCCN2N=C(SCC(=O)NCc3ccccc3)SC2=N1 | 102 |
| CCCSc1nnc(N)s1 | 100 |
| CNC(C)C(=O)c1ccccc1 (stereo unspecified) | 96 |
| C=CCN(C(=O)c1cccc2c1SCCC2=O)c1ccccc1 | 113 |
| O=C(C=Cc1ccccc1)N1CCN(c2cccc(Cl)n2)CC1 | 88 |
| C=CCc1ccccc1COCC(O)CN1CC(C)OC(C)C1 (stereo unspecified) | 88 |
| COc1ccc(C(=O)c2[nH]c(-c3ccc(OC)cc3)cc2-c2ccccc2)cc1 | 100 |
| O=C1NN=C(c2ccccc2)/C1=C1\OC(c2ccccc2)=CS1 | 78 |
| COc1ccc(C2CC(=O)N(CC(=O)Nc3ccc4c(c3)OCO4)c3ccccc3S2)cc1OC (stereo unspecified) | 102 |
| O=C(O)Cc1cc(C(F)(F)F)on1 | 92 |
| CCOC(=O)c1cc(=O)c2ccc(OCc3ccccc3)cc2o1 | 93 |
| O=C(NCc1ccc(Cl)cc1)c1cccc(S(=O)(=O)N2CCCC2)c1 | 107 |
| O=C(O)C1CC2C=CCC(C1)C2=O (stereo unspecified) | 89 |
| O=C(OCC(=O)N1CCc2ccccc2C1)c1ccccc1O | 96 |
| CCC1(C)Oc2ccc(NC(=O)c3cc(F)c(F)cc3Cl)cc2O1 (stereo unspecified) | 94 |
| O=C(O)Cc1sc(Nc2ccccc2)nc1-c1cccs1 | 101 |
| Cc1ccccc1CSCCC(=O)NC1CCCCC1 | 88 |
| CCc1nnc(NC(=O)CSc2nc(-c3ccccc3)cc(C(F)(F)F)c2C#N)s1 | 98 |
| CCSc1nnc(-c2c[nH]c3ccccc23)n1CCOC | 107 |
| CCc1ccc(OCC(=O)NCCc2ccccc2)cc1 | 101 |
| CNC(=S)N1CCc2cc(OC)c(OC)cc2C1COc1ccc(OC)cc1 (stereo unspecified) | 103 |
| CNC(=S)Nc1cc(Cl)cc(Cl)c1 | 100 |
| CCc1c(C(=O)OC)nnc2cc(C)nn12 | 97 |
| O=C(NCC1CCCCN1)c1cc(OCC(F)(F)F)ccc1OCC(F)(F)F (stereo unspecified) | 100 |
| CC(C)Cn1c(-c2ccncc2)n[nH]c1=S | 101 |
| Cc1ccc(C(=O)Oc2ccc(C3SCCS3)cc2)cc1 | 100 |
| Cc1nc(-n2cc(F)c(=O)[nH]c2=O)c2nc(C)oc2n1 | 101 |
| CN=Cc1c(Cl)nc2sccn12 | 86 |
| CC(Cc1ccc(O)c(O)c1)C(C)Cc1ccc(O)c(O)c1 (stereo unspecified) | 92 |
| CCCCC(=O)N1c2ccccc2NC2=C(C(=O)CCC2)C1c1ccccc1 (stereo unspecified) | 100 |
| COC(=O)CN1C(=S)N(Cc2ccccc2)C(=O)C1CC(=O)Nc1ccc(OC)cc1 (stereo unspecified) | 101 |
| O=C(c1ccccc1Cl)N(Cc1ccccc1)c1ccccn1 | 101 |
| OCCNC(=S)NC1CCCC1 | 91 |
| CC(C)C(=O)Nc1ccc(N2CCN(C)CC2)cc1 | 109 |
| COc1ccc(CN=Cc2ccc(C(F)(F)F)cc2)cc1 | 102 |
| O=C(NCCc1ccccc1)c1cc2n(n1)C(C(F)(F)F)CC(c1ccc(Br)cc1)N2 (stereo unspecified) | 100 |
| CCOc1ccc(/C(O)=C/C(=O)C(=O)Nc2ccc(S(=O)(=O)NC(C)=O)cc2)cc1 | 93 |
| COc1cc(OC)c(/C=C2\C(=O)NC(=O)N(C3CCCCC3)C2=O)c(OC)c1 | 100 |
| Cc1ccc(-c2cc(-c3ccccc3)c(C#N)c(SCS(=O)Cc3ccccc3)n2)cc1 (stereo unspecified) | 100 |

An excerpt of these results, as labelled records.
mol: COC(=O)CN1C(=S)N(Cc2ccccc2)C(=O)C1CC(=O)Nc1ccc(OC)cc1 (stereo unspecified)
  VACV E9 pol inh: 101

mol: O=C(c1ccccc1Cl)N(Cc1ccccc1)c1ccccn1
  VACV E9 pol inh: 101

mol: OCCNC(=S)NC1CCCC1
  VACV E9 pol inh: 91

Additional records:
| SMILES | VACV E9 pol inh |
| --- | --- |
| CCCn1c(=O)c(/C(N)=N/O)nn(-c2ccccc2)c1=O | 106 |
| O=C(O)COCC(=O)Nc1cnccn1 | 102 |
| CCNc1ccc(S(=O)(=O)C(F)(F)F)cc1N | 102 |
| O=C(ON1C(=O)c2cccc3cccc(c23)C1=O)c1ccncc1 | 106 |
| CCC(C)NC(=O)Cc1ccc(OC)cc1 (stereo unspecified) | 100 |
| Cn1cc(S(=O)(=O)N2CCCC2)cc1C(=O)N1CCc2ccccc2C1 | 101 |
| Cc1ccccc1/C=C1\Cc2ccccc2C1=O | 87 |
| O=C1C=CC(=O)N1c1ccccc1Sc1ccccc1 | 98 |
| Cn1c2c(c3ccccc31)C(C)(C)Cc1c-2cnn1-c1ccccc1 | 100 |
| COc1ccccc1-n1c(C)nc(=O)c(-c2ccccc2)c1C | 100 |
| O=c1ccc2cc(O[C@@H]3O[C@H](CO)[C@@H](O)[C@H](O)[C@H]3O)c(O)cc2o1 | 101 |
| CC(C)(C)n1ncc(C(=O)O)c1C(F)(F)F | 100 |
| COC(=O)C1CCC(C(=O)O)C1(C)C (stereo unspecified) | 106 |
| CCCOc1ccc(-c2nc(N(CC)CC)c3ccccc3n2)cc1 | 100 |
| C#C[C@]1(O)CCC2C3CCC4=CC(=O)CC[C@@H]4C3CC[C@@]21C (stereo partly specified) | 100 |
| CC(CN1CCNCC1)(NS(=O)(=O)c1ccccc1)c1ccccc1 (stereo unspecified) | 96 |
| O=C(Nc1ccc2c(c1)OCCO2)N1C=CC(C(F)(F)F)=NCC1 | 87 |
| C=C[C@@]1(C)CC(=O)[C@]2(O)[C@@]3(C)[C@H](O)CCC(C)(C)[C@@H]3[C@H](O)[C@H](OC(C)=O)[C@@]2(C)O1 | 100 |
| CCC1(c2ccccc2)C(=O)NCNC1=O | 95 |
| CC12CCC(=O)C=C1CCC1C2[C@@H](O)CC2(C)C1CC[C@]2(O)C(=O)COP(=O)(O)O (stereo partly specified) | 102 |
| CC1CCN(C(=O)COC(=O)c2ccc(Br)o2)CC1 | 105 |
| O=C(NCCn1ccc2ccccc21)c1cccc2ccccc12 | 100 |
| CCn1c(N)nc2c1c(=O)[nH]c(=O)n2C | 102 |
| COc1ccccc1NC(=O)CC(c1ccccc1)c1ccc(C)cc1O (stereo unspecified) | 99 |
| CCc1ccc(NC(=O)Cn2c(=O)oc3ccccc32)cc1 | 96 |
| COc1cc2c3c(c1OC)-c1cc(OC(C)=O)ccc1CC3N(C(C)=O)CC2 (stereo unspecified) | 89 |
| Cc1ncc(CSc2nc3ccc(C(F)(F)F)cc3[nH]2)c(CO)c1O | 106 |
| CCC(=O)Nc1ccc(-c2nc3cccnc3s2)cc1 | 92 |
| O=C(c1cnc2ccccn12)C(F)(F)SCc1c(Cl)cccc1Cl | 102 |
| COc1ccc(C(C#N)c2ccc(C(=O)c3ccc(F)cc3)cc2)cc1 (stereo unspecified) | 98 |
| Cn1c(N/C(=C\C(=O)c2cccs2)C(F)(F)F)nc2ccccc21 | 103 |
| CC(=O)NCCc1nc2ccccc2n1Cc1ccc(C(C)C)cc1 | 92 |
| CNC[C@H](O)c1cccc(O)c1 | 100 |
| O=C(OCC(=O)N1CCc2ccccc2C1)c1cccs1 | 103 |
| COc1ccc(N2CCN(C(=O)c3ccc(C#CC4(O)CCCCC4)cc3)CC2)cc1 | 102 |
| COc1ccc(CNc2ncn[nH]2)cc1OC | 82* |
| CCC(Cc1cccc(O)c1)C(=O)O (stereo unspecified) | 97 |
| COCc1cc(C)nc2sc3c(=O)n(Cc4ccccc4)nnc3c12 | 101 |
| O=c1[nH]c2ccc(S(=O)(=O)N3CCCC3)cc2s1 | 100 |
| Cc1csc(C(C(=O)O)c2ccccc2)n1 (stereo unspecified) | 107 |
| O=C(CSc1nc2ccccc2o1)N1CCNC1=O | 104 |
| CCOC(=O)c1c(C)n(-c2cccc(C)c2)c2ccc(O)cc12 | 99 |
| CNC(=S)N1CCN(c2ccccc2OC)CC1 | 101 |
| COc1ccc(-c2nc3c4cnn(-c5cccc(C)c5)c4ncn3n2)cc1 | 100 |
| C=CCC(N)(CC=C)c1ccc(C)cc1 | 103 |
| COc1ccc(NC(=O)COc2cccc(Oc3ccccc3)c2)cc1 | 86 |
| COc1ccc2c3c1O[C@H]1[C@@H](O)C=CC4[C@@H](C2)N(C)CC[C@@]341 (stereo partly specified) | 100 |
| FC(F)(F)c1cccc(NC(=S)N2CCn3cccc3C2c2cccnc2)c1 (stereo unspecified) | 104 |
| FC(F)(F)c1cc(-c2ccccc2)nc(N2CCCC2)n1 | 105 |
| COc1cc(C(=O)Oc2ccc(Cl)c3cccnc23)cc(OC)c1OC | 81 |
| CC(=O)Nc1ccc(OCC(O)Cn2cnc3ccccc32)cc1 (stereo unspecified) | 120 |
| C(=N\n1nnnc1Nc1ccccc1)/c1ccc(OCc2ccccc2)cc1 | 94 |
| O=C(Nc1ccccc1)c1ccc(N2C(=O)CCC2=O)cc1 | 106 |
| Cc1cccc(NC(=O)Cn2c(=O)n(CCC(=O)NCc3ccco3)c(=O)c3ccccc32)c1 | 101 |
| COc1cccc(/C=C/C(=O)OCC(=O)Nc2ccccc2)c1 | 102 |
| Cn1c(CCCNC(=O)Cc2ccccc2)nc2ccccc21 | 100 |
| O=C(Nc1ccccc1Cl)c1cc(-c2cccs2)nc2ccccc12 | 100 |
| Cc1cc2ncc(-c3ccn(S(=O)(=O)c4ccc(Cl)cc4)c3)nc2cc1C | 93 |
| Cc1cccc(N2C(C)C(=O)SC23CCCCC3)c1 (stereo unspecified) | 100 |
| COc1cc(C=C2C(=O)NC(=S)NC2=O)ccc1OCC(=O)O | 100 |

(list continues)
| SMILES | VACV E9 pol inh |
| --- | --- |
| CC(C)C1=NN2C(=N)/C(=C/c3ccccc3)C(=O)N=C2S1 | 100 |
| CCOc1ccc(N=C2C(=O)Nc3ccc(C)c(Br)c32)cc1 | 93 |
| COC(=O)C1CCC(=O)C(C(=O)OC)C1 (stereo unspecified) | 102 |
| CCN1/C(=C2/SC(=S)NC2=O)Sc2ccccc21 | 100 |
| CCSc1nc(C2CC2)cc(-c2ccco2)c1C#N | 101 |
| CCOc1ccc(C2=C(CN3CCOCC3)C(c3ccccc3)c3ccccc3O2)cc1 (stereo unspecified) | 100 |
| COC(=O)c1ccccc1NC(=O)CCCC(=O)O | 98 |
| CC(=O)NC1=NN(C(C)=O)C(C)(CS(=O)(=O)c2ccc(C)cc2)S1 (stereo unspecified) | 99 |
| CN1CCN(NC(=O)c2ccc(-c3ccccc3)cc2)CC1 | 100 |
| N#Cc1ccc(OCOc2ccc(C#N)cc2)cc1 | 103 |
| CCn1cc(S(=O)(=O)c2ccc(C)cc2)c(=O)c2cc(F)c(N3CCOCC3)cc21 | 99 |
| O=S(=O)(C1=CC23CCCC2(C=C(S(=O)(=O)c2ccc(Cl)cc2)C3)C1)c1ccc(Cl)cc1 (stereo unspecified) | 108 |
| Cc1ccc(NCC2COc3ccccc3O2)cc1 (stereo unspecified) | 107 |
| COc1cc2c(cc1OC)C1c3ccccc3NC(=O)CN1CC2 (stereo unspecified) | 99 |
| C=C1CC[C@H](O)C/C1=C/C=C1\CCC[C@]2(C)[C@@H]([C@H](C)CC[C@@H](O)C(C)(C)O)CC[C@@H]12 | 100 |

In the list so far, 2 contain a tert-butyl group.
| SMILES | VACV E9 pol inh |
| --- | --- |
| CC(C)(C)C(=O)c1cn(CC(=O)O)c2ccccc12 | 81 |
| CC(C)(C)n1ncc(C(=O)O)c1C(F)(F)F | 100 |

A portion of the library; the hit share may differ from the screen's.
